gsp ag – activates gsp, the McCune-Albright syndrome mutation | gsp mutant cells, cAMP HTRF, 30 min; control for the full effect not named in the record | Potency, µM (highest dose often 76.9 µM), for inactives: at the top dose activation (cAMP increase), usual class: activators | hit rate 0.13% among 340,000; active = well fitted activation curve with a large enough effect; inconclusive = small, poorly fitted or top-dose-only effect, or another doubt; inactive = no such curve, though single readings can be large or run the other way; cell line not stated here;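 further: phosphodiesterase inhibitor Ro 20-1724 added with compounds to block cAMP breakdown; potency means the concentration at half of the fitted maximal effect; nearly all actives have a fitted effect of over 60% in size; about a fifth of the inactives were tested at one dose only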
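Cells stably selected in G418 were plated at 2000/well, grown 16-24 hr, then given compounds in DMSO with the PDE inhibitor […] (300 uM solution added) for 30 min at 37C; cAMP was read by HTRF.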
ClpP mod – qHTS Assay for Activators of ClpP | ATP-dependent Clp protease proteolytic subunit (Bacillus subtilis (strain 168)), P80244 | purified B. subtilis ClpP, FRET peptide cleavage, 20 min | Potency, µM (doses to about 57.5 µM), for the others: at the top dose activity change, negative = active | hit rate 1.9% among 340,000 | AID 651965, 2013; active = well fitted falling curve with a large enough effect; inconclusive = small, poorly fitted or top-dose-only effect; inactive = no such curve, though single readings can be large or run the other way; further: potency means the concentration at half of the fitted maximal effect; the source files actives as falling curves though it sought activators and does not explain the sign; nearly all actives have a fitted effect of over 65% in size; many hits overshoot -100%
Target sequence (P80244 whole entry, looked up): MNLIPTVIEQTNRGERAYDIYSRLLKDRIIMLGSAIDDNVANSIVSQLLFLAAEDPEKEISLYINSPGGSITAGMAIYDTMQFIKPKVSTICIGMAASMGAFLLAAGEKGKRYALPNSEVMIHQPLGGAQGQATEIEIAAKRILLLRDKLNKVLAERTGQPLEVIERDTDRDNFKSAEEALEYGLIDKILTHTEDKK
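FRET quenching reversal measured ClpP activation: 10 microg/mL B. subtilis ClpP at pH 8 with the FRET-FV decapeptide, read at 430 nm after 320 nm excitation. The 20-min minus 0-min signal was scaled between DMSO/no-enzyme wells and ADEP (5.8 microM final).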
TRPML1 inh – inhibitors of human TRPML1 channel | activity change, negative = inhibition, % (no concentration beside the values) | AID 624415 | Q9GZU1 | hit rate 0.02% among 390,000 | TRPML1-inducible cells, Ca2+ dye fluorescence, FDSS; active compounds read low; inhibition of EC80 agonist-evoked calcium signal; in the data active means activity change below about -50%; inconclusive means about -30% to -50%; inactive means above about -30%;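 further: stimulus is agonist 54-4 at its EC80 concentration; on the % scale 0 is the no-effect control and ±100 the full control effect; compound concentration not given in the record; the text of the record puts the active cut at -80%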
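TRPML1-DL cells, Tet-induced overnight (~16 h, 37 °C) at 1,500 cells/well, were loaded with Ca8 no-wash dye plus quencher for 45-90 min at room temperature. Compounds were pinned during FDSS kinetic reading; agonist 54-4 at EC80 (4 uM final) then added.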
Sfp inh – blocks B. subtilis Sfp PPTase activity | Potency, µM, without a hit: max response, negative = inhibition, most hits filed as inhibitors | hit rate 3.5% among 310,000 | Biochemical Sfp PPTase activity, qHTS | Q9F4F7; active means well fitted inhibition curve with a large enough effect; inconclusive means small, poorly fitted or top-dose-only effect, or another doubt; inactive means no such curve, though single readings can be large or run the other way;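 further: the enzyme is Sfp with the accession as filed and its product quenches rhodamine fluorescence; potency means the concentration at half of the fitted maximal effect; 0% = enzyme reaction without inhibitor and -100% = no enzyme wells; top concentration of the series not given in the record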
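Reaction rates are the 30-min fluorescence difference (ex 525, em 598 nm) in wells containing 15 nM Sfp, 5 uM rhodamine-CoA and 12.5 uM BHQ-2-YbbR at pH 7.6 with 10 mM MgCl2.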
gsp antagonist – antagonists of gsp mutant (McCune-Albright syndrome). AID 624288. hit rate 0.4% among 340,000. gsp-mutant cells, cAMP HTRF, 30 min; control for the full effect not named in the record. Potency, µM (series often up to 76.9 µM), for the others: top-dose activity change, negative = inhibition, actives largely listed as inhibitors; active = falling curve of any shape with a large fitted effect; inconclusive = falling curve, mostly with a smaller effect; inactive = flat or rising curve; cell line not stated here;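 further: intracellular cAMP measured with PDE inhibitor Ro 20-1724 present during compound exposure; potency means the concentration at half of the fitted maximal effect; on the % scale 0 is the no-effect control and ±100 the full control effect; nearly all actives have a fitted effect of over 65% in size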
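Measurement of cellular cAMP by homogeneous time-resolved fluorescence following a 30 min compound exposure at 37C. The PDE inhibitor […] was present throughout; the assay buffer was DPBS with 0.05% BSA and 0.005% Tween 20.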
TRPV1 PAM – enhances activation of the human vanilloid receptor TRPV1 | potentiation, % at 8.33 µM | Q8NER1 | hit rate 0.02% among 320,000 | TRPV1-expressing cells, Fluo-8 calcium influx, capsaicin EC20 potentiation; host cell line not named in the record; control for the full effect not named in the record; active means potentiation above 80%; inconclusive means 30% to 80%; inactive means below 30%; further: 0% is about no effect
Target sequence (Q8NER1 whole entry, looked up): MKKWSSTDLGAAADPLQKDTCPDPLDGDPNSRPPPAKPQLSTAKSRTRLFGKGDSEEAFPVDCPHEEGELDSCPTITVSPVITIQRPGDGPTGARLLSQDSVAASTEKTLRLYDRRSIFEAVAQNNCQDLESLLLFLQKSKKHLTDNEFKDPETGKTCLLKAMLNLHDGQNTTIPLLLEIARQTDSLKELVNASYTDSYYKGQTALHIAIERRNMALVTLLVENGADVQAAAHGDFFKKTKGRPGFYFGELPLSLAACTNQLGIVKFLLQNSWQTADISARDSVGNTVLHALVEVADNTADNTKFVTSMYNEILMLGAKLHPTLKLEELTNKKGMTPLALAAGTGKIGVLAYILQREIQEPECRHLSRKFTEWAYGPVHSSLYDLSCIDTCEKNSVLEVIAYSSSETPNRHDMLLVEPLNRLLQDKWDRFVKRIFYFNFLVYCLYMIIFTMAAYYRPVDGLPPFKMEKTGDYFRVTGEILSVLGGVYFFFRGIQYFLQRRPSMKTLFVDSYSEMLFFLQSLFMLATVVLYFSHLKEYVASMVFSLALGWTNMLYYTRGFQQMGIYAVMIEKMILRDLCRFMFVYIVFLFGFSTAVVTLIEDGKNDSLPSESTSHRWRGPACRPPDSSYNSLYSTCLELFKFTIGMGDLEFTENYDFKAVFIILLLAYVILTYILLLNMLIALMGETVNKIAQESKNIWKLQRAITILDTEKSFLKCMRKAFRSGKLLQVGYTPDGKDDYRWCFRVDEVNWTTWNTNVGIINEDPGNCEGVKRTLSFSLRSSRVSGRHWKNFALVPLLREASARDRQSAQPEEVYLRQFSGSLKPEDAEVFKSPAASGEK
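Fluo-8 calcium influx in TRPV1-expressing cells, kinetic read (ex 480/em 520 nm). Compound added and read 3 min for agonist activity, followed by capsaicin at EC20 final and 2 min further read for enhancement.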
Menin-MLL FL inh – inhibitors of human menin-MLL interaction, wild-type MLL peptide | Fluorescence polarization, fluorescein-MLL peptide displacement from menin | AID 1766 | 290,000 tested, under 10 active | FP activity change, % at 61.4 µM; inconclusive = falling polarisation curve, or a change in total fluorescence; inactive = total fluorescence flat and polarisation flat or rising; no compound was filed as active; the % refers to the polarisation; negative = inhibition;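 further: % of control where 0% means no effect; inhibitors lower the polarisation; unlabelled MLL peptide was the positive control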
Starred values were filed as active, the others as inactive; ? = inconclusive; nt = not tested or not shown; [ ] = another dose, or the depositor's remark.

SMILES	gsp ag	ClpP mod	TRPML1 inh	Sfp inh	gsp antagonist	TRPV1 PAM	Menin-MLL FL inh
CCOC(=O)c1cn2nc(-c3ccc(OCC)cc3)cc2nc1C1CCN(C(=O)OC(C)(C)C)CC1	-27%	-10%	-1	12%	6%	-1	1.3
Cc1c(OC(C)C(=O)NCc2ccccn2)ccc2c3c(c(=O)oc12)CCCC3 (configuration not stated)	28%	3.5%	67	5%	?	12	nt
O=C(Nc1nc2c(s1)CN(Cc1ccccc1)CC2)C1CCC1	-1%[15.4 µM]	0.2%	0	-7%	-16%	9	14
Nc1c(C(=O)NC2CCCC2)c2nc3ccccc3nc2n1N	-27%	-2.0%	3	32µM*	-2%	-14	0.7
COc1cc(C(=O)OCC(=O)Nc2cc(-c3cc(C)c(C)cc3C)nn2-c2ccccc2)cc(OC)c1OC	10%	nt	2	-21%	9%	3	4.9
O=C(COC(=O)COc1cccc(C(F)(F)F)c1)NC1CCCC1	-9%	-0.8%	23	nt	0%	-20	nt
CSCCC1Nc2ccc(S(=O)(=O)N3CCOCC3)cc2NC1=O (configuration not stated)	17%[15.4 µM]	nt	2	10%	9%	-1	3.2
O=C1CCCC(=O)N1CCCCCCN1C(=O)CCCC1=O	7%	-1.8%	-1	nt	nt	nt	nt
O=c1c(O)c(-c2ccc3c(c2)OCO3)oc2ccccc12	27%	-10%	-6	3%	0%	2	?
Cc1ccc(C(=O)NC2CCN(C(=O)NCc3ccccc3)CC2)cc1	17%[15.4 µM]	-1.5%	-7	-10%	-3%	9	3.7
O=C(N/N=C/c1ccc[nH]1)c1ccccc1O	-7%[15.4 µM]	nt	-19	6%	nt	4	-1.3
O=C(O)CCCCCCNS(=O)(=O)c1ccccc1	-15%	1.0%	8	-4%	6%	11	-0.9
O=C(CCNS(=O)(=O)c1ccc2ccccc2c1)NCCOc1ccccc1	6%	-3.2%	11	nt	2%	2	nt
O=C(CN1CCC(NC(=O)c2ccccc2F)CC1)NCc1ccc(F)cc1	-5%	-1.3%	-6	21%	3%	-13	1.3
Cc1ccc(C(=O)CSc2nc3ccccc3c(=O)[nH]2)cc1	-18%	-0.6%	2	-2%	3%	-4	6.5

An excerpt from above in order of SMILES length, high to low:
SMILES	gsp ag	ClpP mod	TRPML1 inh	Sfp inh	gsp antagonist	TRPV1 PAM	Menin-MLL FL inh
O=C(CCNS(=O)(=O)c1ccc2ccccc2c1)NCCOc1ccccc1	6%	-3.2%	11	nt	2%	2	nt
O=C(Nc1nc2c(s1)CN(Cc1ccccc1)CC2)C1CCC1	-1%[15.4 µM]	0.2%	0	-7%	-16%	9	14
O=C(N/N=C/c1ccc[nH]1)c1ccccc1O	-7%[15.4 µM]	nt	-19	6%	nt	4	-1.3

Next part
SMILES	gsp ag	ClpP mod	TRPML1 inh	Sfp inh	gsp antagonist	TRPV1 PAM	Menin-MLL FL inh
CC(C)(C)C(=O)NC(=S)Nc1sc2c(c1C(N)=O)CCC2	-5%[15.4 µM]	nt	-2	45µM*	-6%	-13	13
CN(CC(=O)Nc1ccccc1Cl)C(=O)c1cc(-c2cccs2)nn1-c1ccccc1	7%	8.6%	-19	nt	0%	4	nt
COC(=O)[C@H]1C[C@H]2[C@@H]3CC[C@H]4C[C@@H](OC)CC[C@]4(C)[C@H]3CC[C@]2(C)[C@@]2(CCCO2)O1	nt	1.7%	-10	nt	10%	nt	nt
O=C1CCCC(=O)C1C(=O)C1CCN(S(=O)(=O)c2ccccc2)CC1	2%[15.4 µM]	nt	15	-10%	-30%	-1	-1.3
O=C(NC1=NCCS1)C1CC2CCC1C2 (configuration not stated)	0%	1.2%	2	-12%	12%	-6	-0.4
N#Cc1ccc(-c2ccc(Cl)cc2)nc1Oc1ccc(F)cc1	?	?	5	-26%	15%	-5	-1.0
O=C(COc1ccc(Nc2ccccc2)cc1)Nc1ccncc1	1%[15.4 µM]	nt	-3	nt	-18%	-10	nt
CCCS(=O)(=O)N1CCCC(C(=O)c2ccccc2OC)C1 (configuration not stated)	-1%	-7.8%	-16	9%	7%	2	-0.7
COC(=O)Cn1nc(-c2ccccc2)c2cc(Cl)ccc21	?	-23%	-7	4%	32µM*	-3	4.9
CCOc1ncccc1C(=O)OCC(=O)c1ccc[nH]1	-1%	-1.2%	-9	11%	-1%	4	-1.1
CCC(C)N(C(=O)COC(=O)c1[nH]c(C)c(C(C)=O)c1C)C1CCS(=O)(=O)C1 (configuration not stated)	5%	0.9%	-4	24%	7%	-2	2.3
COc1cccc(-c2ccc(-c3noc(-c4cccs4)n3)c(OC)n2)c1	-21%	?	10	?	-3%	1	-0.2
O=C(CN1C(=O)COc2ccc(S(=O)(=O)N3CCCC3)cc21)N1CCCC1	-19%	1.8%	17	-8%	-2%	30	-0.2
CC(C)c1ccc2[nH]c3c(c2c1)[C@@H]1CCN2C(=O)CCC[C@H](C3)[C@H]12	21%	-3.4%	-9	-8%	-12%	1	6.5
O=C(OCc1nnc(-c2ccccc2)o1)C1CC(=O)N(c2ccccc2)C1 (configuration not stated)	2%	-0.5%	8	-6%	-5%	-8	-4.7
CSC1=NCCN1C(=O)Cc1ccc(F)cc1	3%	1.0%	-6	6%	7%	3	0.3
CC(=O)N1c2c(cc(Br)cc2S(=O)(=O)N2CCOCC2)CC1C (configuration not stated)	-4%	-2.6%	-9	14%	7%	0	4.4
O=C(CCn1c(=O)oc2cc(Cl)ccc21)Nc1ccc(N2CCOCC2)cc1	7%[15.4 µM]	nt	31	9%	nt	2	-1.4
CN(C)S(=O)(=O)c1cccc(-c2nnc(SCc3cc(Cl)cc4c3OCOC4)n2N)c1	-15%	0.4%	4	32µM*	-16%	13	-0.6
CCCn1nnc(NC(=S)NC(=O)Cc2ccccc2)n1	0%	-1.3%	-26	-14%	3%	-3	4.2
CCCCCCCCCCCCCCCC(=O)OC(CC(=O)O)C[N+](C)(C)C (configuration not stated)	nt	0.4%	-4	-24%	-7%	3	-0.7
O=c1[nH]nc(-c2ccc([N+](=O)[O-])o2)c(=O)[nH]1	-21%	nt	1	nt	-3%	nt	nt
CCOC(=O)CN1C(=O)C2(OCCCO2)c2ccccc21	7%	-2.4%	10	12%	0%	9	-1.8
CCN(CC)CCNC(=O)Cn1cnc2sc(C)c(S(=O)(=O)N3CCN(c4ncccn4)CC3)c2c1=O	9%[15.4 µM]	nt	5	6%	-1%	0	-10
COc1ccc2oc(C(=O)OCC(=O)N3CCCCC3C)c(C)c2c1 (configuration not stated)	-20%	8.9µM*	2	nt	-9%	nt	nt
Nc1ccc(OCCc2ccccc2)cc1	-7%	nt	14	5%	10%	8	5.9
N=c1c(C(=O)NCc2ccco2)cc2c(=O)n3ccccc3nc2n1Cc1ccc(Cl)cc1	?	?	14	50µM*	8%	-5	16
COc1ccc(N2CCN(C(CNC(=O)C(=O)NCCCn3ccnc3)c3ccco3)CC2)cc1 (configuration not stated)	?	-2.7%	nt	17%	6%	-2	-3.6
CCCN(CCC)CCCNC(=O)CS(=O)Cc1nc(-c2ccc(OC)c(OC)c2)oc1C (configuration not stated)	4%	-26%	0	-6%	0%	-6	0.6
C[n+]1ccc(/C=C/c2c[nH]c3ccc(F)cc23)cc1	-16%	0.8%	-13	-8%	?	11	?
Cc1cc(C)c2c(N)c(S(=O)(=O)Cc3ccccc3)sc2n1	-18%	-3.6%	-17	3%	2%	12	3.3
CN1CCN(CCNC(=O)Nc2ccccc2C(F)(F)F)CC1	21%	-1.4%	-1	20%	4%	-10	1.6
CC1Cc2ccccc2N1C1=CC(=O)CC(C)(C)C1 (configuration not stated)	13%[15.4 µM]	nt	4	13%	-5%	-25	0.6
COc1cccc(S(=O)(=O)NCc2ccc(C(=O)Nc3ccc(Cl)cc3)cc2)c1	11%	-4.2%	-9	13%	-12%	-6	6.9
CCOC(=O)c1cnn(-c2nc(SC)nc3sc4c(c23)CCCC4)c1N	8%	-22%	54	-1%	-15%	-5	-0.6
CCCCCCNS(=O)(=O)c1ccc(NC(=O)C2CCCO2)cc1 (configuration not stated)	?	0.9%	-2	8%	31%[activator]	-7	6.2

Part of the list above in order of number of heavy atoms, rising:
SMILES	gsp ag	ClpP mod	TRPML1 inh	Sfp inh	gsp antagonist	TRPV1 PAM	Menin-MLL FL inh
O=c1[nH]nc(-c2ccc([N+](=O)[O-])o2)c(=O)[nH]1	-21%	nt	1	nt	-3%	nt	nt
C[n+]1ccc(/C=C/c2c[nH]c3ccc(F)cc23)cc1	-16%	0.8%	-13	-8%	?	11	?
CCOC(=O)CN1C(=O)C2(OCCCO2)c2ccccc21	7%	-2.4%	10	12%	0%	9	-1.8
Cc1cc(C)c2c(N)c(S(=O)(=O)Cc3ccccc3)sc2n1	-18%	-3.6%	-17	3%	2%	12	3.3
CN1CCN(CCNC(=O)Nc2ccccc2C(F)(F)F)CC1	21%	-1.4%	-1	20%	4%	-10	1.6
CCCCCCNS(=O)(=O)c1ccc(NC(=O)C2CCCO2)cc1 (configuration not stated)	?	0.9%	-2	8%	31%[activator]	-7	6.2
COc1ccc2oc(C(=O)OCC(=O)N3CCCCC3C)c(C)c2c1 (configuration not stated)	-20%	8.9µM*	2	nt	-9%	nt	nt
CCOC(=O)c1cnn(-c2nc(SC)nc3sc4c(c23)CCCC4)c1N	8%	-22%	54	-1%	-15%	-5	-0.6
CCCCCCCCCCCCCCCC(=O)OC(CC(=O)O)C[N+](C)(C)C (configuration not stated)	nt	0.4%	-4	-24%	-7%	3	-0.7
COc1cccc(S(=O)(=O)NCc2ccc(C(=O)Nc3ccc(Cl)cc3)cc2)c1	11%	-4.2%	-9	13%	-12%	-6	6.9
CCCN(CCC)CCCNC(=O)CS(=O)Cc1nc(-c2ccc(OC)c(OC)c2)oc1C (configuration not stated)	4%	-26%	0	-6%	0%	-6	0.6
COc1ccc(N2CCN(C(CNC(=O)C(=O)NCCCn3ccnc3)c3ccco3)CC2)cc1 (configuration not stated)	?	-2.7%	nt	17%	6%	-2	-3.6
CCN(CC)CCNC(=O)Cn1cnc2sc(C)c(S(=O)(=O)N3CCN(c4ncccn4)CC3)c2c1=O	9%[15.4 µM]	nt	5	6%	-1%	0	-10

Compound activity deposited in PubChem BioAssay by National Center for Advancing Translational Sciences (NCATS).
